# E coli growth: blocks Escherichia coli growth. OD600, 23 h; hits give low values. OD600 absorbance (concentration not given with the values). 330,000 tested, 0.21% active. AID 1053175;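 active means OD600 absorbance below the run mean of sample wells minus 3.6 SD, in any replicate, cut at about 0.56 in these data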;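 further: stock transfer was 300 nL into about 60 µL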
# The depositor's hits bear a star; & = joins results of further samples.
SMILES,E coli growth
COc1ccc2c(c1)C(=O)N1C3c4cc(Br)ccc4OCC3C(c3ccccc3)[C@]1(C)C(=O)N2 (some centres not stated),0.68
CC(C)(C)OC(=O)NCc1ccc(NC(=O)c2nc[nH]c2C(=O)NC(Cc2ccccc2)C(=O)OC(C)(C)C)cc1 (configuration not stated),0.73
C#CCOCCOCCOCCNc1nc(N2CCOCC2)nc(N2CCN(C(=O)C(CCCCN)n3cc(CN)nn3)CC2)n1 (configuration not stated),0.65
COc1ccc(CN(C(CO)CC(C)C)S(=O)(=O)N(Cc2ccccc2)C(CO)CC(C)C)cc1 (configuration not stated),0.68
OCCC1CC(O)C(O)[C@@]2(Cc3ccccc3CO2)O1 (some centres not stated),0.68&0.68
COC(=O)C1C(c2cccc(C(F)(F)F)c2)NC(=O)N(Cc2ccccc2)C1C (configuration not stated),0.66&0.67
O=C(NCc1ccccn1)C1(C(F)(F)F)CC(=CCCO)CCCO1 (configuration not stated),0.71
CCC(C)C(C(=O)N1CCNCC1)n1cc(CCC(=O)O)nn1 (configuration not stated),0.69
CC(C)(C)N1C(=O)C2C(c3ccc(Br)cc3)N3C(=O)N(c4cccc(F)c4)C(=O)[C@@]3(Cc3ccccc3)C2C1=O (some centres not stated),0.7
CCC(C)C1CNCCN1CCc1cccc(F)c1 (configuration not stated),0.7
COC(=O)N1C(C)C=C[C@]1(Cc1ccccc1)C(=O)OC (some centres not stated),0.62
CC(C)C(CO)NC(=O)c1ccc2c3n(nc2c1)-c1ccccc1CO3 (configuration not stated),0.69
COC(=O)[C@@]1(Cc2ccc(F)cc2)C2c3cc(C(=O)N4CCCC4)n(CCc4c[nH]c5ccc(OC)cc45)c3CC2CN1C(=O)c1ccccc1 (some centres not stated),0.65
CC1CC2C3CC(F)C4=CC(=O)C=C[C@]4(C)[C@@]3(F)C(O)C[C@]2(C)[C@@]1(O)C(=O)CO (some centres not stated),0.71
C#CCOCCOCCOCCNc1nc(N2CCN(C(=O)C(CCCCN)n3cc(C(N)CC(C)C)nn3)CC2)nc(N2CCN(C(=O)C(Cc3cc4ccccc4[nH]3)n3cc(C(N)Cc4ccc(O)cc4)nn3)CC2)n1 (configuration not stated),0.62
CC1CCCN(C2=NC(=O)C(=Cc3cn(-c4ccccc4)nc3-c3cccc(S(=O)(=O)N(C)C)c3)S2)C1 (configuration not stated),0.69
COC(=O)C1C(C)OC(=O)NC1c1ccccc1 (configuration not stated),0.72
CCOC(=O)C1C2COc3ccc(C)cc3C2N2C(=O)c3ccccc3NC(=O)[C@@]12C (some centres not stated),0.71
CCCCCCC(C(C)O)n1cnc2c(N)ncnc21 (configuration not stated),0.71
CCOC(=O)C1C2COc3ccc(Cl)cc3C2N2C(=O)CN(Cc3ccc(OC)cc3)C(=O)[C@@]12C (some centres not stated),0.67
CC(NC(=O)c1nc[nH]c1C(=O)N1CCN(C(=O)OC(C)(C)C)CC1)c1ccccc1 (configuration not stated),0.66&0.65
CCN1C(=O)C2C(c3ccc(C)cc3)N3C(=O)N(c4ccccc4)C(=O)[C@@]3(C)C2C1=O (some centres not stated),0.68
C#CCNC(=O)C1=CC(c2ccc(C(F)(F)F)cc2)CC(OCCCCO)O1 (configuration not stated),0.64&0.69
CC=CC(=O)OCC(=O)Nc1ccc(C)c(S(=O)(=O)N(C)C)c1,0.7
COc1ccccc1NC(=O)C(C#N)=Cc1c(C)nn(-c2ccc(F)cc2)c1Cl,0.77

# Carrying on.
SMILES,E coli growth
Cc1ccc(F)c(C2C3C=CCC[C@@]3(C)C(=O)N2Cc2ccccc2)c1 (some centres not stated),0.65
COc1ccc2c(c1)C1C(CO2)C(c2ccccc2)[C@]2(C)C(=O)NCC(=O)N12 (some centres not stated),0.69
[O-]C1=N[N+](=Cc2ccccc2Cl)CC1,0.71
COC(=O)C(Cc1ccc(O)cc1)NC(=O)Cn1ccc(NC(=O)OCc2ccccc2)nc1=O (configuration not stated),0.69
CC1CN(C(C)CO)C(=O)c2cccc(NC(=O)C3CC3)c2OC1CN(C)CC1CCCCC1 (configuration not stated),0.68
CC1CN(C(C)CO)C(=O)c2cc(NC(=O)Nc3ccccc3)ccc2OC1CN(C)S(C)(=O)=O (configuration not stated),0.64
COC(=O)c1cccc(C23CC4(C2)C(CN(Cc2cccnc2)C4c2ccccc2)C3c2ccccc2)c1 (configuration not stated),0.69
CCCOc1ccc(NC=CC(=O)C(C)(C)C)cc1,0.67
C=C(C)C(=O)Nc1cccc(C2=NOC3(C2)CC(C(N)=O)N(C(=O)c2cc([N+](=O)[O-])cc([N+](=O)[O-])c2C)C3)c1 (configuration not stated),0.69
CCC(=Cc1ccccc1)c1cccc2[nH]c3c(OC)cccc3c12,0.71
CC(C)CC(NC(=O)c1nc[nH]c1C(=O)N1CCC(C)CC1)C(=O)OC(C)(C)C (configuration not stated),0.67
Cc1ccccc1CN1CC2CC(c3cnc(N4CCOCC4)s3)N3CCC[C@@]23C1=O (some centres not stated),0.69
CCOC(=O)C1C2COc3ccc(Br)cc3C2N2C(=O)N(c3ccc(C)cc3)C(=O)[C@@]12C (some centres not stated),0.7&0.71
O=C(C1=CC(C2CCCCC2)CC(OCCCCO)O1)N1CCOCC1 (configuration not stated),0.65
Cc1ccc(S(=O)(=O)N2C(c3cccc(Cl)c3)CC=C(C(=O)O)C2c2ccccc2F)cc1 (configuration not stated),0.64
O=C(C=Cc1ccccc1)c1ccoc1,0.67
CC[C@]12C(=O)N(C)CC(C3C(=O)N(C)C(=O)C31)N2C(=O)c1ccc(C)cc1 (some centres not stated),0.66
CC(C)(C)C(=O)C(C#N)=Cc1ccc(O)cc1,0.66
OC(CCN1CCCCC1)(c1ccccc1)C1CC2C=CC1C2 (configuration not stated),0.64
COC(CC(O)CC(O)C(C)OCc1ccccc1)OC (configuration not stated),0.67&0.66&0.7&0.66&0.69&0.71
NC(=O)C1(NC(=O)C2CC3(CC(c4cccc(NC(=O)C5CCC(=O)N5)c4)=NO3)CN2C(=O)c2cnccn2)CC1 (configuration not stated),0.69
N#CC(C(=O)Oc1ccccc1)=C1C=CC=CN1,0.67
CC(C)C1COC(NC2=NC(C(C)C)CO2)=N1 (configuration not stated),0.7
O=C1C2C(c3ccc(F)cc3)N3C(=O)N(c4cccc(Cl)c4)C(=O)[C@@]3(Cc3ccc(Cl)cc3)C2C(=O)N1C1CCCCC1 (some centres not stated),0.71
CCOC1OC(C(=O)NCc2ccccc2)=CC(c2cn(C(C)=O)c3ccccc23)C1CCCO (configuration not stated),0.68&0.71

# 3 entries from above, arranged by the value under E coli growth, falling:
SMILES,E coli growth
CC(C)C1COC(NC2=NC(C(C)C)CO2)=N1 (configuration not stated),0.7
CC[C@]12C(=O)N(C)CC(C3C(=O)N(C)C(=O)C31)N2C(=O)c1ccc(C)cc1 (some centres not stated),0.66
CC1CN(C(C)CO)C(=O)c2cc(NC(=O)Nc3ccccc3)ccc2OC1CN(C)S(C)(=O)=O (configuration not stated),0.64

# Continued:
SMILES,E coli growth
CC[C@@]12C(=O)N(c3cccc(Br)c3)C(=O)N1C(c1ccc(OC)cc1)C1C(=O)N(C(C)(C)C)C(=O)C12 (some centres not stated),0.73
CC(NC(=O)c1nc[nH]c1C(=O)NC(Cc1ccccc1)C(=O)OC(C)(C)C)C(=O)OC(C)(C)C (configuration not stated),0.69
CC1CN=C(Nc2ccccc2)N1CC1CCCCCC1 (configuration not stated),0.67
O=C(NC1CC1)C1=CC(C2CC2)CC(OCc2ccc(CO)cc2)O1 (configuration not stated),0.68
COc1ccc2c(c1)SC(=CC(=O)c1ccncc1)N2C,0.65
NCCCCC1CNC(=O)C(=O)N1CCCCC1CCCCC1 (configuration not stated),0.71
C#CCOCCOCCOCCNc1nc(N2CCN(C(=O)Cn3cc(CCCN=C(N)N)nn3)CC2)nc(N2CCN(C(=O)C(CCCCN)n3cc(CCCC)nn3)CC2)n1 (configuration not stated),0.61
COc1ccc(F)cc1C1=CC(=O)CC(c2ccc3c(c2)OCO3)C1 (configuration not stated),0.7
CC(C)CCC(O)[C@](C)(O)C1CC[C@@]2(O)C3=CC(=O)C4CC(O)C(O)C[C@]4(C)C3CC[C@]12C (some centres not stated),0.68
O=C(O)C1=CC(c2ccc3c(c2)OCO3)CC(OCc2ccc(CO)cc2)O1 (configuration not stated),0.71&0.7
CCCC(O)c1cc2cc(OC)c(OC)cc2c(=O)o1 (configuration not stated),0.67
CCCCCC(=O)Nc1cccc(C2=NOC3(C2)CC(C(N)=O)N(C(=O)C2(C)CC2)C3)c1 (configuration not stated),0.68
O=C(COc1ccccc1C=C1SC(=O)NC1=O)Nc1ccc(F)cc1,0.7
C#CCOCCOCCOCCNc1nc(N2CCOCC2)nc(N2CCN(C(=O)C(CCC(=O)O)n3cc(C(N)Cc4ccc(O)cc4)nn3)CC2)n1 (configuration not stated),0.71
CCN1CC2C3C(=O)N(C)C(=O)C3[C@](Cc3ccccc3)(C1=O)N2C(=O)c1ccc(C)cc1 (some centres not stated),0.67
O=C(C1=CC(C2CC2)CC(OCCCCO)O1)N1CCN(Cc2ccccc2)CC1 (configuration not stated),0.67&0.64
COCCN1C(=O)NC(c2ccc(Br)cc2)C(C(=O)OC)=C1C (configuration not stated),0.65
COc1ccc(SCC(Cc2ccccc2)N2CCC(O)CCC2=O)cc1 (configuration not stated),0.64
Cc1noc(C)c1NC(=O)Nc1cccc2c1OC(CN(C)C(=O)NC1CCCCC1)C(C)CN(C(C)CO)C2=O (configuration not stated),0.69
CCOC(=O)c1ccc(NC(=O)c2nc[nH]c2C(=O)NC(CCCCNC(=O)OC(C)(C)C)C(=O)OC(C)(C)C)cc1 (configuration not stated),0.7
OCC1=CC(O)C2C=COC(OC3OC(CO)C(O)C(O)C3O)C12 (configuration not stated),0.65
C#CCOCCOCCOCCNc1nc(N2CCN(C(=O)C(C(C)O)n3cc(CCCCN)nn3)CC2)nc(N2CCN(C(=O)C(C(C)CC)n3cc(CCCN=C(N)N)nn3)CC2)n1 (configuration not stated),0.68
CCC=CC(=O)N1CC2(CC(c3cccc(NC(=O)CC(c4ccccc4)c4ccccc4)c3)=NO2)CC1C(N)=O (configuration not stated),0.67
CC1CC(O)c2cc(Cl)ccc2N1 (configuration not stated),0.68
CC1CN(C(C)CO)C(=O)Cc2cc(NC(=O)CCC(F)(F)F)ccc2OC1CN(C)C(=O)Nc1ccccc1 (configuration not stated),0.73

# Exported bar-delimited: 2 of the compounds above.
SMILES | E coli growth
NCCCCC1CNC(=O)C(=O)N1CCCCC1CCCCC1 (configuration not stated) | 0.71
C#CCOCCOCCOCCNc1nc(N2CCN(C(=O)Cn3cc(CCCN=C(N)N)nn3)CC2)nc(N2CCN(C(=O)C(CCCCN)n3cc(CCCC)nn3)CC2)n1 (configuration not stated) | 0.61

# Further entries follow:
SMILES,E coli growth
COc1ccc(C2CC(=O)C=C(c3ccc(C)cc3)C2)cc1 (configuration not stated),0.61
COc1ccc(C2CC=C(C(=O)O)C(c3ccc(F)cc3)N2S(=O)(=O)c2ccc(C)cc2)cc1OC (configuration not stated),0.72
CCC1(CC)C(=O)C2=C3C(CC(C(=O)OC)CC(C(=O)OC)C31)C1C(=O)N(c3ccccc3)C(=O)C1C2C (configuration not stated),0.64
CCN1C(=O)C2C(c3ccc(-c4ccc(Cl)c(Cl)c4)c(OC)c3)N[C@@](C)(C(=O)OC)C2C1=O (some centres not stated),0.72
CC=CC(=O)Nc1cccc(C2=NOC3(C2)CC(C(N)=O)N(C(=O)CC(c2ccccc2)c2ccccc2)C3)c1 (configuration not stated),0.66
Cc1ccc(C2C3C(=O)N(C)C(=O)C3[C@]3(Cc4ccccc4)C(=O)N(Cc4ccccc4)CC(=O)N23)o1 (some centres not stated),0.68
C#CCOCCOCCOCCNc1nc(N2CCOCC2)nc(N2CCN(C(=O)C(CCCCN)n3cc(C(N)CC(C)C)nn3)CC2)n1 (configuration not stated),0.67
COc1ccc(C2CC(c3ccccc3)Oc3cc(OC)cc(OC)c32)cc1 (configuration not stated),0.72
COc1ccc(NC(=O)N(C)CC2Oc3ccc(NC(=O)c4ccncc4)cc3C(=O)N(C(C)CO)CC2C)cc1 (configuration not stated),0.68
COc1ccc2c(c1)OCC1C2N2C(=O)CN(CCc3c[nH]c4ccccc34)C(=O)[C@@]2(C)C1c1ccccc1 (some centres not stated),0.71
COC(=O)[C@]1(Cc2ccccc2)NC(c2ccc(-c3cccc(Cl)c3)cc2)C2C(=O)N(C)C(=O)C21 (some centres not stated),0.74
C=C1CCN(C(CC(C)C)C(=O)O)S(=O)(=O)c2ccccc21 (configuration not stated),0.62
COC(=O)CC1c2ccc(C(F)(F)F)cc2S(=O)(=O)N1Cc1ccccc1 (configuration not stated),0.66
CC(C)CC(NC(=O)c1nc[nH]c1C(=O)NC1CCN(C(=O)OC(C)(C)C)CC1)C(=O)OCc1ccccc1 (configuration not stated),0.7
COc1ccc2c(c1)OCC1C2N2C(=O)c3cc(Cl)ccc3NC(=O)[C@@]2(C)C1c1ccccc1 (some centres not stated),0.7
CC(=O)n1cc(C2C=C(C(=O)NCc3ccccc3)OC(OCCCCO)C2)c2ccccc21 (configuration not stated),0.72&0.7
C#CCOCCOCCOCCNc1nc(N2CCOCC2)nc(N2CCN(C(=O)C(CCCCN)n3cc(C(N)C(C)CC)nn3)CC2)n1 (configuration not stated),0.67
O=C(NCc1ccccc1)C1=CC(C2CC2)CC(OCCCCO)O1 (configuration not stated),0.65&0.7
O=C(Nc1cccc(C(=O)O)c1)C(=Cc1ccccc1)NC(=O)c1ccccc1,0.7
COC(=O)C1=C(C(=O)OC)C2Nc3ccccc3[C@@]23CC(C(=O)OC)N=C3N1 (some centres not stated),0.67
O=c1[nH]c2ccccc2nc1C=Cc1ccc(Cl)cc1,0.7

# Three compounds from above, arranged by count of non-hydrogen atoms, high to low.
SMILES,E coli growth
C#CCOCCOCCOCCNc1nc(N2CCOCC2)nc(N2CCN(C(=O)C(CCCCN)n3cc(C(N)C(C)CC)nn3)CC2)n1 (configuration not stated),0.67
CC=CC(=O)Nc1cccc(C2=NOC3(C2)CC(C(N)=O)N(C(=O)CC(c2ccccc2)c2ccccc2)C3)c1 (configuration not stated),0.66
COC(=O)C1=C(C(=O)OC)C2Nc3ccccc3[C@@]23CC(C(=O)OC)N=C3N1 (some centres not stated),0.67

# Copied from the list:
# Entry of CCN1C(=O)C2C(c3ccc(-c4ccc(Cl)c(Cl)c4)c(OC)c3)N[C@@](C)(C(=O)OC)C2C1=O (some centres not stated) in E coli growth: 0.72
# Entry of COc1ccc2c(c1)OCC1C2N2C(=O)CN(CCc3c[nH]c4ccccc34)C(=O)[C@@]2(C)C1c1ccccc1 (some centres not stated) in E coli growth: 0.71

# Compound activity as filed in PubChem.

# A portion of the library. The share of hits here may be higher or lower than overall.
